High-throughput results from PubChem.
Insulin prom inh: inhibitors of insulin promoter-driven GFP, primary screen, imaging, TRM-6 cells (human fetal islet line), eGFP reporter, cell count; reporter expression induced with tamoxifen; inhibition, % at 2 µM; 130,000 compounds, 0.9% hits;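 active means inhibition above the mean plus 3 SD, with well images judged a real hit on visual review, cut at about 60% in these data, passing the limit was not always enough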
HSV replic up: enhancers of HSV replication in host cells, fold increase, host cell viability. HSV replication augmentation in cells. maximum fold increase. 220,000 compounds, 0.005% hits. AID 1956, 2009;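 active means peak rise of 1.5-fold or more in the series; tested in PC3 cells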;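 further: first round at 10 µM; read as green reporter fluorescence; hits show the peak of a series up to 25 µM; 1 = signal of infected wells without compound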
PKD1 kinase inh: inhibitors of human PKD1 kinase, biochemical, fluorescence polarization; 200,000 compounds, 0.056% hits; PKD1 kinase fluorescence polarization assay; inhibition, %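 (about 10 µM by stock and volumes)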; Serine/threonine-protein kinase D1 (Homo sapiens), Q15139;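 active means inhibition of 50% or more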;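 further: controls were vehicle for no effect and a reference inhibitor for full effect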
Target sequence (Q15139 whole entry, looked up): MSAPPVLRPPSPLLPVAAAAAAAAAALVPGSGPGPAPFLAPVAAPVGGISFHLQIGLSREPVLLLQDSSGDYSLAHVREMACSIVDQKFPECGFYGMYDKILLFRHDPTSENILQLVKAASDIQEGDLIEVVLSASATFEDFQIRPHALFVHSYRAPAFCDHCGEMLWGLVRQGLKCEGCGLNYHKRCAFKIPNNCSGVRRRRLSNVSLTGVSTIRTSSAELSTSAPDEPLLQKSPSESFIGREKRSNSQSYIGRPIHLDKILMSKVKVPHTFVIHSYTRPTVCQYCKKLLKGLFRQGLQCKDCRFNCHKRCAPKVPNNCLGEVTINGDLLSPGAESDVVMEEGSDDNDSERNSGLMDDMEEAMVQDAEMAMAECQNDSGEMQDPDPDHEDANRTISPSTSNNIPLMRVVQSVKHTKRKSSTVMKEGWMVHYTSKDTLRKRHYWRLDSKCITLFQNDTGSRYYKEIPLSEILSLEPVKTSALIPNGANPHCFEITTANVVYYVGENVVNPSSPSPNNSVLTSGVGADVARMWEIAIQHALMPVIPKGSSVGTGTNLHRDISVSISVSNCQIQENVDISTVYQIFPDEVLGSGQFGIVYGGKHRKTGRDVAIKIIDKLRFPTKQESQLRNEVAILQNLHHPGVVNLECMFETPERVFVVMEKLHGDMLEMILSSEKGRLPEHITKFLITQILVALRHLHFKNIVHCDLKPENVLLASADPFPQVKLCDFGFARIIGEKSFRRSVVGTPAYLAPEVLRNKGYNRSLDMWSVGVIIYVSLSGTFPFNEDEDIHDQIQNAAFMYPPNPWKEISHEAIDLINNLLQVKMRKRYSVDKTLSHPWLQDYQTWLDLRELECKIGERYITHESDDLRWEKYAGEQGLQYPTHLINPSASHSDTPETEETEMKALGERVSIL
GALR2 agonist: GALR2 receptor agonists, primary screen, cell-based. Galanin receptor type 2 (Homo sapiens), O43603. GALR2-expressing cells, agonist activation read-out. 140,000 compounds, 0.48% hits. activation, %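 (tested at 5 µM)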;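 active means above mean plus 3 SD of all compounds, about 5% in these data, not always enough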;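 further: 0% = vehicle buffer wells and 100% = reference agonist at full effect; tested in CHO reporter cells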
RGS16-Gao HTS: modulators of RGS16 binding to Galphao, primary screen, biochemical, human proteins, multiplexed bead flow cytometry; Regulator of G-protein signaling 16 (Homo sapiens) + Guanine nucleotide-binding protein …; bead-based flow cytometry RGS16-Galphao binding, fluorescence; actives lie on both sides; binding response (% of control), % at 10 µM; 220,000 compounds, 0.38% hits; AID 1441, 2008;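 active means below 25% or above 175%, edge rows of some plates excepted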;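 further: Galphao activated by GDP with aluminum fluoride before binding; 100% = wells without compound and 0% = beads without RGS; some results beyond the cut were filed as inactive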
Insulin prom inh cell count: also measured in Insulin prom inh; calls as there; normalized cell count, %; measured here: cell count, toxicity; reference of the scale not given here;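 cells exposed to compound for 48 h; stained nuclei by imaging scaled within each plate; lower means fewer cells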
HSV replic up primary fold: recorded beside HSV replic up, whose call it bears; fold increase; compound at 10 µM; measured here: primary screen fold increase 10 uM; tested in PC3 cells;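 GFP signal in the first replicate; 1 = infected wells without compound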
The depositor's hits bear a star; i = inactive; / = no result given. This is a random part of the collection; about 1.3% have a hit in one of these screens.

SMILES	Insulin prom inh	Insulin prom inh cell count	HSV replic up	HSV replic up primary fold	PKD1 kinase inh	GALR2 agonist	RGS16-Gao HTS
Cc1occc1C(=O)N1CCN(c2ccc(Cl)c(Cl)c2)CC1	6	112	i	0.86	-4	-2.6	102
O=C(CSc1nnc(-c2ccccc2Cl)n1Cc1ccco1)Nc1ccc2c(c1)OCCO2	-11	144	i	1	1	-3.1	96
CC1(C)C(=O)Nc2ccccc2N1C(=O)CSc1nnc2c(Cl)cc(Cl)cn12	23	88	i	0.86	-10	-1.4	105
CC(C)Cc1cc(C(=O)N2CCC(N3CCC(C(=O)N4CCCC4)CC3)CC2)n[nH]1	/	/	i	1	-4	/	105
Cc1ccc(C)c2[nH]c(=O)c(C(c3nnnn3C(C)(C)C)N3CC=C(c4ccc(F)cc4)CC3)cc12 (configuration not stated)	-4	105	i	0.86	-12	-1.6	101
Cc1cc[n+](CC(=O)Nc2nc3ccccc3s2)cc1	/	/	i	0.92	1	/	105
Cc1c(N2C(=O)C(=O)/C(=C(/O)c3ccccc3)C2c2ccc(F)cc2)c(=O)n(-c2ccccc2)n1C (configuration not stated)	/	/	i	1	-8	-0.9	106
CCNS(=O)(=O)c1c(C)cc(C)c(N(C)S(=O)(=O)c2ccccc2)c1C	-14	81	i	0.99	-12	/	103
Cn1cc([N+](=O)[O-])c(C(=O)Nc2ccn(C34CC5CC(CC(C5)C3)C4)n2)n1	8	75	i	0.65	-1	-0.7	97
COc1ccc(OCc2cccc(C(=O)O)c2)cc1	/	/	i	0.98	/	/	105
Cc1ccnc(NC(=O)c2c(-c3ccccc3Cl)noc2C)c1	-33	67	i	1	-3	-2.1	102
CC(C(=O)O)n1c(-c2ccn[nH]2)n[nH]c1=S (configuration not stated)	/	/	i	0.93	/	/	96
CC(C)Cn1c(=O)c(C2=NS(=O)(=O)c3ccccc3N2)c(O)c2ccccc21	-5	163	/	/	-4	1.0	/
Cc1sc2ccccc2[n+]1CCC(C)S(=O)(=O)[O-] (configuration not stated)	-9	116	i	0.95	-6	-1.2	99
O=C(Cn1c(=O)oc2ccccc21)Nc1ccc(S(=O)(=O)N2CCCCC2)cc1	-23	212	i	0.89	-8	-4.3	106
COC(=O)Nc1csc2c1NC(=O)CCCC2	/	/	i	0.96	/	/	-4.2*
Cc1ccc(NC(=O)CC(C(=O)O)c2ccccc2)cc1 (configuration not stated)	15	158	i	0.96	-7	-1.3	34
O=C(N=NC(=O)c1ccc2c(O)n(CC3CCCO3)c(O)c2c1)c1cccnc1 (configuration not stated)	/	/	i	1.1	/	/	105
Cc1ccc(OCCNC(=O)c2ccco2)cc1C	/	/	i	0.94	-9	-1.8	103
O=C(NNC(=O)c1ccncc1)c1ccncc1	-25	98	i	1	-1	-1.4	113
CCS(=O)(=O)N1Cc2ccccc2CC1C(=O)OCC(=O)Nc1ccc(SC(F)F)cc1 (configuration not stated)	-22	103	i	0.67	4	-3.2	99
CCCCNC(=O)c1ccc(CS(=O)(=O)c2cccc(C(F)(F)F)c2)o1	/	/	i	0.94	5	-3.4	96
COc1cc(OC)c(OC)cc1/C=N/NC(=O)c1cnccn1	/	/	i	1	-1	/	105
CCC(C)NC(=O)C1CC(c2cccc(OC)c2)=NO1 (configuration not stated)	/	/	i	0.97	-12	-1.0	104
CCOCCCNC(=O)/C(C#N)=C/c1ccc(Cl)c([N+](=O)[O-])c1	/	/	i	0.71	0	/	95
Nc1nc(N)nc(-c2ccccc2)n1	50	97	i	0.99	-3	0.6	121
CCOc1ccc(C2Nc3ccc4ccccc4c3-c3c2c(=O)oc2ccccc32)cc1 (configuration not stated)	11	140	i	1.1	-8	-2.2	107
COc1ccc(N2CCN(C(=O)C(C)(C)Oc3ccc(Cl)cc3)CC2)cc1	/	/	i	1.1	-15	0.0	93
CC(C)CC(=O)Nc1ccccc1N1CCN(c2ccccc2)CC1	-57	115	i	0.97	-3	/	108
CN1CCC(NC(=O)Nc2cccc(C(F)(F)F)c2)CC1	/	/	i	0.89	5	/	101
COC(=O)C1=C(C)OC(N)=C(C#N)C1C1CCCCC1 (configuration not stated)	/	/	i	0.94	2	0.3	103
COc1ccc(NC(=O)C2CCCN2C(=O)NC2CCCCC2)cc1OC (configuration not stated)	7	125	i	0.9	-3	-2.0	97
CCOc1ccc(N2C(=O)CC(N(Cc3ccco3)C(=O)CCC(=O)O)C2=O)cc1 (configuration not stated)	/	/	i	1.2	-7	/	110
Cn1c(COc2ccc(Cl)cc2)nc2ccccc2c1=O	/	/	/	/	-3	-1.5	103
COc1ccccc1Nc1ccncc1[N+](=O)[O-]	0	120	i	0.88	-2	/	70
CNC(=O)c1ccc(CNC(=O)OCc2ccccc2)cc1	15	119	i	0.95	-2	/	102
CCc1c(C)[nH]n(-c2nc(-c3cccc([N+](=O)[O-])c3)cs2)c1=O	0	173	i	0.81	8	-1.8	102
O=[N+]([O-])c1ccc(-c2cn(-c3ccccc3)c(=S)[nH]2)cc1	/	/	i	1.1	-7	-0.6	97
O=C(N/N=C/C=C/c1ccco1)c1cccnc1	100*	10*	i	0.97	-8	-1.8	65
O=C(N/N=C/c1ccc2c(c1)OCO2)C(=O)N1CCCC1	/	/	i	0.69	-2	/	104
Cc1ccccc1OCCCC(=O)Nc1nncs1	-9	99	i	0.95	-4	/	104
O=C(Nc1ccccc1)OC1CC2CC1C1CCCC21 (configuration not stated)	/	/	i	0.94	12	/	102
O=C(Cc1ccccc1)Nc1ccccc1C(=O)Nc1ccccc1	-15	105	i	0.89	-5	-0.6	95
COc1ccc(C2CC(C(F)(F)F)n3nc(C(=O)Nc4ccc5c(c4)OCO5)cc3N2)cc1 (configuration not stated)	0	98	i	1.1	-8	-1.2	95
CC(=O)c1ccccc1NC(=O)COC(=O)/C=C/c1ccc(C)o1	29	155	i	0.93	-3	/	85
CCC1CCCCN1CC(C)(C)NS(=O)(=O)c1ccccc1 (configuration not stated)	/	/	i	1	/	/	106
O=C1C2C3C=CC(C3=C3CCCCC3)C2C(=O)N1c1ccccc1 (configuration not stated)	-288	36	i	1.1	-7	-4.3	100
CCn1cc(Cl)c(C(=O)N2N=C3/C(=C/c4cccs4)CCCC3C2c2cccs2)n1 (configuration not stated)	-62	107	i	0.83	6	-1.7	105
CCOc1ccc(NC(=O)c2cc(C)nc3ccccc23)cc1	0	140	i	0.88	-1	/	97
Cc1sc(NC(=O)c2ccco2)c(CN2CCN(c3ccccc3)CC2)c1C	8	98	i	0.89	0	-0.3	96

Exported as comma-separated lines: entries from further up.
structure,Insulin prom inh,Insulin prom inh cell count,HSV replic up,HSV replic up primary fold,PKD1 kinase inh,GALR2 agonist,RGS16-Gao HTS
CCc1c(C)[nH]n(-c2nc(-c3cccc([N+](=O)[O-])c3)cs2)c1=O,0,173,i,0.81,8,-1.8,102
O=[N+]([O-])c1ccc(-c2cn(-c3ccccc3)c(=S)[nH]2)cc1,/,/,i,1.1,-7,-0.6,97
O=C(N/N=C/C=C/c1ccco1)c1cccnc1,100*,10*,i,0.97,-8,-1.8,65
O=C(N/N=C/c1ccc2c(c1)OCO2)C(=O)N1CCCC1,/,/,i,0.69,-2,/,104
Cc1ccccc1OCCCC(=O)Nc1nncs1,-9,99,i,0.95,-4,/,104
O=C(Nc1ccccc1)OC1CC2CC1C1CCCC21 (configuration not stated),/,/,i,0.94,12,/,102
O=C(Cc1ccccc1)Nc1ccccc1C(=O)Nc1ccccc1,-15,105,i,0.89,-5,-0.6,95
COc1ccc(C2CC(C(F)(F)F)n3nc(C(=O)Nc4ccc5c(c4)OCO5)cc3N2)cc1 (configuration not stated),0,98,i,1.1,-8,-1.2,95
CC(=O)c1ccccc1NC(=O)COC(=O)/C=C/c1ccc(C)o1,29,155,i,0.93,-3,/,85
CCC1CCCCN1CC(C)(C)NS(=O)(=O)c1ccccc1 (configuration not stated),/,/,i,1,/,/,106
O=C1C2C3C=CC(C3=C3CCCCC3)C2C(=O)N1c1ccccc1 (configuration not stated),-288,36,i,1.1,-7,-4.3,100
CCn1cc(Cl)c(C(=O)N2N=C3/C(=C/c4cccs4)CCCC3C2c2cccs2)n1 (configuration not stated),-62,107,i,0.83,6,-1.7,105
CCOc1ccc(NC(=O)c2cc(C)nc3ccccc23)cc1,0,140,i,0.88,-1,/,97
Cc1sc(NC(=O)c2ccco2)c(CN2CCN(c3ccccc3)CC2)c1C,8,98,i,0.89,0,-0.3,96

Next structures follow.
SMILES	Insulin prom inh	Insulin prom inh cell count	HSV replic up	HSV replic up primary fold	PKD1 kinase inh	GALR2 agonist	RGS16-Gao HTS
CCOC(=O)c1c(C)nc2ncccn12	13	139	i	1	0	0.8	102
Cc1ccc(NC(=O)c2nnn(CC(=O)Nc3ccccc3)c2N)cc1C	58	130	i	0.98	11	0.9	108
Nc1nc(CSc2nc3ccccc3[nH]2)cs1	/	/	i	0.93	-6	-2.8	104
COn1cnnc1-c1ccccc1	/	/	i	0.99	-10	-1.7	126
O=C(c1ccccc1)c1nn(-c2ccccc2)c(=O)cc1C(F)(F)F	-23	79	i	0.61	5	-3.1	98
O=C(CSc1ncnc2sccc12)Nc1ccccc1F	7	82	i	0.93	-7	/	90
CC(C)c1nnc(NC(=O)CSc2nc3ccccc3s2)s1	3	124	i	0.86	2	-3.3	102
CCN(CC)C(=O)c1sc(NC(=O)c2cccc([N+](=O)[O-])c2)c(C#N)c1C	-13	97	i	1	3	-0.5	108
Cc1ccc(N(Cc2cc(=O)[nH]c3ccccc23)C(=O)c2ccco2)cc1	/	/	i	0.75	5	-0.6	72
COc1ccc(-n2cnc3scc(-c4ccccc4)c3c2=O)cc1	-28	99	i	0.94	1	/	111
O=C(NCc1cccs1)Nc1cc(Cl)ccc1Cl	/	/	i	0.86	-3	/	94
O=C(NCC(c1ccco1)N1CCCC1)c1ccc(Cl)cc1 (configuration not stated)	-27	70	i	0.85	-5	-3.2	103
c1ccc(COc2ccc(-c3csnn3)cc2)cc1	30	85	i	0.98	-3	-0.6	98
O=C(NNS(=O)(=O)c1ccc(Br)cc1)c1cccs1	/	/	i	0.92	-6	/	97
COc1ccc(-c2nnc(N3CCCCC3)c3ccccc23)cc1	/	/	i	0.96	-6	-0.8	104
CCCCc1ccc(CC(=O)O)cc1	/	/	i	0.91	-5	-1.8	100
Cc1onc(-c2ccccc2)c1C(=O)NC(C)C	/	/	i	0.78	4	-2.5	101
CC(=O)c1c(N2CCN(c3ccc(F)cc3)CC2)nc(=S)n(Cc2ccccc2)c1C	-58	99	/	/	-13	0.0	109
COc1ccc(-c2cc(N)n(S(=O)(=O)Cc3ccccc3)n2)c(OC)c1	/	/	i	0.99	-12	-0.8	99
COc1ccc(OC)c(S(=O)(=O)N2CCCCC2C(=O)O)c1 (configuration not stated)	-3	160	i	0.73	3	-0.3	83
O=C(CNC(=O)C1COc2ccccc2O1)N/N=C\c1ccc(Cl)cc1 (configuration not stated)	/	/	i	1.3	/	/	99
CC(=O)C1=NN(c2ccccc2)C(c2ccc3c(c2)OCO3)N1c1ccc(N2CCOCC2)cc1 (configuration not stated)	-4	123	i	0.97	-10	0.2	101
CSC1=NCCN1C(=O)C(C)(C)Oc1ccc(Cl)cc1	/	/	i	0.84	-5	-1.2	/
CCOc1ccc(S(=O)(=O)Nc2ccc(F)cc2)c(C)c1C	/	/	i	0.98	-2	-1.3	100
CC(C(=O)Nc1ccccc1-c1ccccc1)N1CCN(S(=O)(=O)c2ccccc2)CC1 (configuration not stated)	/	/	i	1	-4	-0.5	108
CCC(C)C(=O)Nc1cc(C(=O)OC)ccc1C(=O)OC (configuration not stated)	/	/	i	1.1	-4	-0.5	109
Cc1ccc(N2C(=O)CC(NNc3nc4ccccc4s3)C2=O)cc1 (configuration not stated)	-7	108	i	1.1	9	-0.9	i
CCc1nc2ccc(F)cc2c(C(=O)NC2CCCCC2C)c1C (configuration not stated)	20	92	i	0.89	-3	0.0	93
